StopGo RLuc = FMDV 2A StopGo reporter, Renilla signal | HEK cells with a luciferase reporter of 2A StopGo recoding | Potency, µM (series often up to 57.5 µM), without a hit: at the top dose signal change, negative = less light | 120,000 tested, 0.32% active; active means well fitted falling curve with a large enough effect; inconclusive means small, poorly fitted or top-dose-only effect; inactive means no such curve, though single readings can be large or run the other way; also: nearly all actives have a fitted effect of over 55% in size; overnight with compound
StopGo FLuc = lowers the firefly signal of an FMDV 2A StopGo reporter; AID 1745856; HEK cells with a luciferase reporter of 2A StopGo recoding; Potency, µM (titrated, usually from 57.5 µM), without a hit: at the highest dose signal change, negative = less light; 120,000 tested, 0.23% active; active = well fitted falling curve with a large enough effect; inconclusive = small, poorly fitted or top-dose-only effect; inactive = no such curve, though single readings can be large or run the other way; also: nearly all actives have a fitted effect of over 60% in size; overnight with compound
Numbers without * were called inactive; ? = inconclusive; [ ] = dose if it differs, or a comment. % is scaled to controls: 0 for no effect and ±100 for the full control effect; potency is read from the fitted curve at half-maximal effect.

SMILES | StopGo RLuc | StopGo FLuc
COCC(C)NS(=O)(=O)c1ccc(C)cc1C (stereo not given) | 121.0%[activator] | 2.5%
CC1CCc2sc(C(=O)OCC(=O)N3CCC(c4ccccc4)=N3)cc2C1 (stereo not given) | -12.7% | -3.6%
O=C(CSc1n[nH]c(-c2ccccc2)n1)c1cc(F)ccc1F | 43.6%[activator] | 112.9%[activator]
CC(C)CCNC(=O)c1ccc2c(c1)N(Cc1ccccc1F)C(=O)c1ccccc1S2(=O)=O | 55.5%[activator] | 0.6%
O=c1[nH]c(CN2CCN(Cc3cccs3)CC2)nc2scc(-c3ccc(F)cc3)c12 | -9.5% | -6.5%
CCc1ccc(NC(=O)CSc2nc(=O)n(Cc3cccnc3)c3c2CCC3)cc1 | ? | ?
CC1(C)CC(=O)C2=C(C1)NC(=O)CC2c1ccccc1C(F)(F)F (stereo not given) | 6.8% | 12.7%
COc1ccccc1NC(=O)Cn1c(=O)n(-c2ccc(C)cc2)c(=O)c2c1cnn2C | -16.4% | -22.3%
Cc1cccc(Cn2cccc2CNS(=O)(=O)c2ccc(C)c(C)c2)c1 | 331.8%[activator] | 8.7%
Cc1ccc(NC(=O)CCn2cnc3onc(-c4ccc(F)cc4)c3c2=O)c(Br)c1 | -2.4% | -5.3%
COc1cc(/C=C(/C#N)C(=O)c2cccc(C)c2)cc(Cl)c1O | -1.1%[1.06 µM] | 5.9%
Fc1ccccc1COc1ccc(-c2nnco2)cc1 | 14.1% | 0.0%
COc1cccc(-c2nc(CS(=O)(=O)CC(=O)Nc3c(C)cc(C)cc3C)c(C)o2)c1 | -12.8% | -6.6%
COC(=O)c1cc2sc(Cl)cc2n1Cc1nc(-c2ccccc2C)oc1C | -6.5% | 2.9%
Cc1cc(NC(=O)c2cc(F)ccc2Br)n(CCC#N)n1 | -5.5% | -7.6%

Quoted at random: two entries already listed.
SMILES | StopGo RLuc | StopGo FLuc
O=c1[nH]c(CN2CCN(Cc3cccs3)CC2)nc2scc(-c3ccc(F)cc3)c12 | -9.5% | -6.5%
COCC(C)NS(=O)(=O)c1ccc(C)cc1C (stereo not given) | 121.0%[activator] | 2.5%

Carrying on:
SMILES | StopGo RLuc | StopGo FLuc
Cc1cccc(Cn2c(=O)n(-c3ccc(Cl)c(Cl)c3)c(=O)c3c(C)c(C)sc32)c1 | -9.7% | -6.8%
Cc1ccc(OC(C)C(=O)Nc2cc(-c3ccc(F)c(F)c3)no2)cc1C (stereo not given) | 5.1% | 27.9%
CC1=C(C(=O)Nc2ccc(C)cc2C)C(c2ccc(C(C)C)cc2)n2nc(C(F)(F)F)nc2N1 (stereo not given) | -13.4% | -16.1%
CCOc1ccccc1CNC(=O)C1CCN(S(=O)(=O)c2cccc3nonc23)CC1 | 7.0% | -10.5%
CCOc1ccccc1N(C)C(=O)C1CCCN(c2ncnc3onc(-c4ccc(F)cc4)c23)C1 (stereo not given) | -4.3% | -3.6%
Cc1cccc(C(=O)C(C)C(=O)c2cccc(C)c2)c1 | 19.1% | 23.6%
COc1ccc(C(=O)Nc2cccc(-c3nc4cccnc4s3)c2C)c(OC)c1 | 12.3% | 0.7%
O=S(=O)(Cc1cccc(F)c1)Cc1nc2ccccc2s1 | 84.9%[activator] | 213.1%[activator]
COc1ccc(-c2nc(C#N)c(NCCc3ccc(F)cc3)o2)cc1 | 72.4%[activator] | 77.7%[activator]
CCOc1ccc(-c2cccc(NS(=O)(=O)c3cc(OC)ccc3OC)c2)nn1 | 151.1%[activator] | 12.4%
CC(Sc1nc(CN2CCOCC2)nc2ccccc12)C(=O)Nc1ccc(F)cc1F (stereo not given) | ? | -24.1%
Cn1c(=O)c2c(nc(Oc3ccccc3Cl)n2Cc2ccc(C#N)cc2)n(C)c1=O | -6.1% | -8.7%
Cc1sc2c(c1C)C(c1ccc(F)cc1)=NCC(=O)N2CC(=O)Nc1cc(F)ccc1F | 111.1%[activator] | -9.3%
COc1ccc(C(=O)NNc2ncnc3c2cnn3-c2ccc(C)cc2C)cc1 | -11.2% | 26.6%
CCc1ccc2oc(-c3ccc(NC(=O)c4cc(OC)c(OC)c(OC)c4)cc3)nc2c1 | -10.2% | 2.0%

One compound at a time (already shown):
Results for CCOc1ccc(-c2cccc(NS(=O)(=O)c3cc(OC)ccc3OC)c2)nn1 = StopGo RLuc = 151.1%[activator]; StopGo FLuc = 12.4%
Results for Cc1sc2c(c1C)C(c1ccc(F)cc1)=NCC(=O)N2CC(=O)Nc1cc(F)ccc1F = StopGo RLuc = 111.1%[activator]; StopGo FLuc = -9.3%
Results for CC(Sc1nc(CN2CCOCC2)nc2ccccc12)C(=O)Nc1ccc(F)cc1F (stereo not given) = StopGo RLuc = ?; StopGo FLuc = -24.1%

Remaining list, next part:
SMILES | StopGo RLuc | StopGo FLuc
CC(=O)c1ccc(NC(=O)CCCSc2nc(-c3ccco3)cc(C(F)(F)F)n2)cc1 | -7.8% | 30.3%[activator]
CCNc1nc(NCc2ccc(F)cc2)c2cnn(C)c2n1 | 3.5% | -8.7%
COC(=O)c1cc2sc(C)cc2n1Cc1nc(-c2cccc(Br)c2)oc1C | 0.0% | 3.3%
O=C1CCCN1CCCNCC1CCCCC1 | 10.8% | 19.2%
CCN1C(=O)c2ccccc2Sc2ccc(NC(=O)N3CCN(c4cc(C)ccc4C)CC3)cc21 | -36.9% | ?
COc1ccc(C(=O)Nc2ccc(C)cc2)cc1S(=O)(=O)NC1CCCC1 | 162.8%[activator] | -13.2%
O=C(c1ccccc1F)N1CCC(c2nc3c(nnn3Cc3cccc(F)c3)c(=O)[nH]2)CC1 | 3.6% | -14.0%
Nc1nc(Cl)ncc1[N+](=O)[O-] | 6.0% | 22.9%
COc1ccc(C2=C(N3CCN(c4cc(C)ccc4C)CC3)c3ccccc3C2=O)cc1 | -6.5% | -8.4%
COc1ccc(NC(=O)c2cccc3c(=O)c4c([nH]c23)CCCC4)cc1 | 4.3% | 14.2%
Cc1nn(-c2ccccc2)c2c1N(CC(=O)NCc1ccc(N(C)C)cc1)C(=O)CS2 | -5.8% | -10.6%
C=CCn1c(C)cc(C(=O)COC(=O)c2nn(CCC)c(=O)c3ccccc23)c1C | 22.4% | 119.7%[activator]
N#Cc1cccc(C(=O)NCCc2cccc3cccnc23)c1 | 29.4% | 22.3%
CCC(CC)c1nnc(NC(=O)C2CC(c3ccccc3)=NO2)s1 (stereo not given) | -1.5% | -2.4%
CCOc1ccc(CNC(=O)c2cc(-c3ccc(Cl)s3)nc3ccccc23)cc1 | -4.8% | -0.1%
Cc1cccc(OCC(=O)Nc2ccccc2OCc2cc(=O)n3ccccc3n2)c1 | -6.4% | -9.7%
CC(=O)NC(NC(C)=O)c1cccnc1 | -16.3% | 0.8%
Cc1ccccc1NC(=O)C1=C(Cl)CCCC1 | 13.1% | 47.3%[activator]
CS(=O)(=O)c1ccc2nc(NC(=O)COc3ccc(F)cc3)sc2c1 | -6.1% | 11.0%
CC(=O)N1c2ccc(S(=O)(=O)NCc3ccc(Cl)cc3)cc2CC1C (stereo not given) | 55.2%[activator] | -10.6%
COC(=O)c1c(-c2ccc(F)cc2)csc1NC(=O)CN1CCN(c2ccccc2)CC1 | 4.0% | 1.1%
Cc1cccc2c(C(=O)O)cc(-c3ccc(Cl)s3)nc12 | -10.9% | 13.9%
CCOc1ccc(N(CC)S(=O)(=O)N2CCCC(C(=O)Nc3ccc(OC)c(Cl)c3)C2)cc1 (stereo not given) | -7.5% | -18.4%
O=C(O)CS(=O)(=O)Cc1cccc(Br)c1 | 8.0% | 10.0%
O=C(O)CCc1ncc(-c2ccc(F)cc2F)o1 | -3.7% | 27.5%
Cc1ccc(NC(=O)CSc2nc3ccc(Br)cc3[nH]2)c(C)c1 | -14.0% | 0.0%
CCCc1cc(=O)[nH]c(SCc2nc(-c3ccccc3)no2)n1 | -16.3% | -17.2%
Cc1cn2c(=O)cc(COC(=O)c3ccccc3F)nc2s1 | -6.0% | -5.7%
CCNC(=O)c1cnc2sc(N3CCC(C)CC3)nn2c1=O | -2.1% | 0.0%
COc1ccc(Cl)cc1NC(=O)COC(=O)c1nn(C)c(=O)c2ccccc12 | -3.8% | 4.4%
CCN(CC)S(=O)(=O)c1ccc(-c2nc(C#N)c(NCc3ccc(F)cc3)o2)cc1 | 26.3% | 0.4%
Cc1nc(N2CCOCC2)c2c(C(=O)N3CCN(c4ccc(Cl)cc4)CC3)c(C)oc2n1 | -3.6% | -19.2%
CCCCN(CC)c1ccc(NS(=O)(=O)c2ccc(Br)s2)cc1C(=O)O | 20.1% | 8.7%
Cc1ccc(/C=C/c2nc3ccccc3n2S(=O)(=O)c2cccc(Cl)c2)cc1 | 1.4% | -54.3%
CCc1ccc(CNC(=O)CSc2cc(=O)n(CC)c3ccccc23)cc1 | 141.5%[activator] | 16.2%
O=C1N(Cc2ccccc2Cl)c2ccccc2C1(O)c1c[nH]c2ccccc12 (stereo not given) | 8.1% | ?
C=CCOc1ccc2c(=O)c(Oc3cc(C)ccc3C)coc2c1 | 70.1%[activator] | 14.1%
CCOC(=O)CCCNC(=O)CCl | -10.4% | -5.8%
O=C(c1cccc(Cl)c1)N1c2ncnn2C2(CCCCC2)[C@@H]2CCCC[C@@H]21 | ? | ?
COC(=O)CNC(=O)c1cccc2c(=O)c(C)c(-c3ccccc3)oc12 | -1.7% | 5.7%
CCOc1ccc(NC(=O)CC2C(=O)N(c3cccc(OC)c3)C(=O)N2C2CCCCC2)cc1 (stereo not given) | 7.8% | -9.1%
Cn1c(=O)[nH]c2c(nc(-c3ccccc3)n2CCc2ccccc2)c1=O | -6.1% | -6.3%
Cc1ccc(S(=O)(=O)N2CCN(C(=O)CNc3cccc(Cl)c3Cl)CC2)cc1 | -29.0% | -30.8%
Cc1ccc(COc2ccc3oc(-c4ccccc4)c(C(=O)O)c3c2)cc1 | 2.6% | 0.0%
CCC(C(=O)Nc1ccc(C(=O)OC)cc1)n1c(=O)c(-c2ccccc2NC(C)=O)nc2ccccc21 (stereo not given) | 3.4% | -15.3%
OC1CCCN(Cc2nnc(-c3ccccc3Cl)o2)C1 (stereo not given) | -9.6% | 74.6%[activator]
CCOc1ccc(-c2cc3nc(C4CCN(C(=O)OC(C)(C)C)CC4)c(C(=O)Nc4c(C)cccc4C)cn3n2)cc1 | -8.8% | 7.0%
NC(=O)c1ccc(NC(=O)c2cc(-c3cccs3)nc3ccccc23)cc1 | -7.8% | 18.2%
Cc1ccc2nc3sc(C(=O)N4CCN(c5cccc(C(F)(F)F)c5)CC4)cc3cc2c1 | -9.1% | -9.6%
O=C(Nc1ccc(Oc2ccc(Cl)cc2)cc1)c1nc2ccccc2nc1N1CCOCC1 | -4.6% | -6.0%
COc1ccc(-c2ccc(CCC(=O)Nc3cc(Cl)ccc3OC)o2)cc1 | 0.0% | 0.0%
COc1cc(Nc2c(C#N)cnc3ccccc23)cc(OC)c1OC | 16.4% | 12.5%
CC(=O)Nc1ccc(NC(=O)CC2C(=O)NCCN2C(=O)CN2CCN(c3ncccn3)CC2)cc1 (stereo not given) | -4.7% | -10.1%
O=C(Nc1cn[nH]c1)C1CCCN(c2ncccc2C(F)(F)F)C1 (stereo not given) | 15.5% | 9.9%
N#Cc1ccccc1Cn1c(=O)n(-c2ccc(F)c(Cl)c2)c(=O)c2sccc21 | -15.3% | 15.8%
CC(C)CNC(=O)CNC(=O)CC1CCCCC1 | 3.7% | -7.6%
CCCNC(=O)c1cc2nc(-c3ccc(Br)cc3)cc(C(F)(F)F)n2n1 | -2.5% | -14.5%
Nn1c(SCc2ncc(-c3ccccc3)o2)nnc1-c1cccc(Cl)c1 | 4.8% | 13.2%
C=CCNC(=O)Cn1c(=O)c2c(ncn2CCC(C)C)n(Cc2ccccc2)c1=O | -11.0% | -13.4%
Cc1ccc(-n2ncc(C(=O)Nc3ccc(C)c(F)c3)c2C2CCN(C(=O)OC(C)(C)C)CC2)cc1C | -21.9% | 5.8%
Continued.
SMILES | StopGo RLuc | StopGo FLuc
C=CCn1c(Br)nc2c1c(=O)n(C)c(=O)n2C | -5.8% | -2.0%
Cc1cc(C(=O)NNC(=S)NC(=O)c2ccccc2)cs1 | -9.1% | 134.2%[activator]
Cc1c(Br)c(C(F)(F)F)nn1CC(=O)Nc1c(F)cc(F)cc1Br | -1.7% | -7.7%
CNC(=O)CN(C)C(=O)c1cccc(C(F)(F)F)c1 | 13.2% | 12.4%
Cc1ccc(C(=O)CSc2nnnn2C2CC2)cc1C | 5.5% | 0.0%
CCOC(=O)Cn1cc2c(c1-c1ccc(Cl)cc1)c(=O)n(C)c(=O)n2C | -13.1% | -22.1%
Cc1cccc(-c2nc(CS(=O)CC(=O)NCCCSC3CCCCC3)c(C)o2)c1 (stereo not given) | -5.3% | -4.1%
CN(C)c1nc2c(c(=O)[nH]c(=O)n2C)n1Cc1ccccc1Cl | 6.6% | 15.0%
CS(=O)(=O)N1CCC(N2CCN(Cc3ccccc3)C(=O)C2=O)CC1 | -6.1% | -5.6%
Cc1cccc(C)c1NS(=O)(=O)c1ccc(S(=O)(=O)N2CCCC2)cc1 | 7.2% | -1.2%
CS(=O)(=O)NN1C(=O)c2ccccc2NC1c1cccs1 (stereo not given) | -10.2% | -4.7%
O=C(COc1ncnc2ccccc12)Nc1ccc(F)cc1 | -8.9% | 3.0%
Cn1c(CCNC(=O)c2ccco2)nc2cc(NC(=O)COc3ccc(Cl)cc3)ccc21 | -9.1% | 19.3%
CC(C)(C)c1ccc(O)c(NC(=O)c2n[nH]c(=O)c3ccccc23)c1 | -23.8% | -5.4%
Cc1ccc(CNC(=O)c2ccc(-c3nc(CS(=O)c4ccccc4)c(C)o3)cc2)cc1 (stereo not given) | 5.3% | -11.5%
Cc1cccc(-c2nc(SCC(=O)NCc3ccco3)c3c(=O)n(C)c(=O)n(C)c3n2)c1 | -4.2% | -8.8%

From PubChem BioAssay
